# Screening results: PubChem BioAssay, National Center for Advancing Translational Sciences (NCATS)
# NS1 inh = inhibitors of influenza NS1 protein function; S. cerevisiae slowed by influenza A NS1, growth recovery by OD600; Potency, µM (series often up to 46.1 µM), inactives show at the highest dose activity, positive = more growth; 0.4% of 270,000 active; AID 2326; further: actives are rising curves; nearly all actives have a fitted effect of over 50% in size
#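 Read-out: OD600 growth recovery of NS1-expressing budding yeast. Cells grown overnight at 30C in -URA glucose medium, washed, resuspended and diluted 1:100 in 2% galactose assay medium, pH 6.0. Same strain lacking NS1 served as positive control.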
# RE007 growth inh = less growth of the S. pombe RE007 Vpr strain; S. pombe RE007 Vpr strain, BacTiter-Glo ATP luminescence, 24 h; control for the full effect not named in the record; Potency, µM (titrated, usually from 92.2 µM), for the others: at the highest dose activity change, negative = less growth; 0.21% of 360,000 active; active = well fitted falling curve with a large enough effect; inconclusive = small, poorly fitted or top-dose-only effect; inactive = no such curve, though single readings can be large or run the other way;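 further: on the % scale 0 is the no-effect control and ±100 the full control effect; nearly all actives have a fitted effect of over 50% in size; the assay follows cell death caused by Vpr and the record does not say whether a fall means rescue or toxicity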
#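 Fission yeast strain RE007, carrying one chromosomally integrated HIV-1 vpr copy, was seeded at OD 0.01 in PMG+AL medium with 23 nL pinned compound. After 24 h at 30 °C and 99% humidity, viability was read by BacTiter-Glo luminescence.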
# SARS PLP yeast = SARS-CoV PLP inhibition in yeast; AID 485353; 0.19% of 330,000 active; S. cerevisiae expressing SARS-CoV PLpro, growth rescue; control for the full effect not named in the record; Potency, µM (top dose mostly 32.9 µM), for inactives: at the highest dose activity, positive = growth rescue; further: 0% is about no effect; nearly all actives have a fitted effect of over 55% in size; growth read by luminescence after 48 h
# Cruzain inh Det = blocks cruzain activity in presence of Triton detergent; 0.43% of 200,000 active; Potency, µM, inactives show max response, negative = inhibition, actives largely listed as inhibitors; purified cruzain, Z-FR-AMC fluorescence, 0.01% Triton; P25779; active means well fitted curve in the direction sought with a large enough effect; inconclusive means small, poorly fitted or top-dose-only effect, or another doubt; inactive means no such curve, though single readings can be large; an effect the other way counts as inactive or inconclusive;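 further: plate controls were neutral wells for no effect and buffer without enzyme for full effect; nearly all actives have a fitted effect of over 40% in size; top concentration of the series not given in the record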
# Target sequence (P25779 123-467 limits assumed): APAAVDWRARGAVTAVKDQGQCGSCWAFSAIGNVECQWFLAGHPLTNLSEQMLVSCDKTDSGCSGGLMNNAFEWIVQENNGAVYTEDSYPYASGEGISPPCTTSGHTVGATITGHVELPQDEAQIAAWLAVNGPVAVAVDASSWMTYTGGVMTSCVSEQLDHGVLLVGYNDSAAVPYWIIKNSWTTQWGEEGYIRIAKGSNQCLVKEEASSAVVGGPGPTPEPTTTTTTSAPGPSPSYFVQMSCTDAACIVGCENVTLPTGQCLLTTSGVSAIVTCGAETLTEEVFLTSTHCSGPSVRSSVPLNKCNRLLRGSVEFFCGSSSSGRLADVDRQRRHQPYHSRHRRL
#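 Cysteine protease activity tested under reducing, mildly acidic conditions (100 mM sodium acetate pH 5.5, 5 mM DTT) plus 0.01% Triton X-100. Cruzain 1.5 nM; substrate Z-FR-AMC 2 uM; 15 min compound preincubation at room temperature.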
# StopGo reporter = lowers the luciferase signal of an FMDV 2A StopGo reporter | human cells with a luciferase reporter of 2A StopGo recoding; control for the full effect not named in the record | Potency, µM (doses to about 57.9 µM), for inactives: at the top dose signal change, negative = less light | 1.2% of 410,000 active | AID 1159524; active = well fitted falling curve with a large enough effect; inconclusive = small, poorly fitted or top-dose-only effect; inactive = no such curve, though single readings can be large or run the other way; tested in HEK293T cells; further: on the % scale 0 is the no-effect control and ±100 the full control effect; nearly all actives have a fitted effect of over 45% in size; luciferase light after 4 h
# Cruzain inh noDet = blocks cruzain activity in detergent-free assay; P25779; 2.3% of 200,000 active; purified cruzain, Z-FR-AMC fluorescence, no detergent; Potency, µM, for inactives: max response, negative = inhibition, actives largely listed as inhibitors; active means well fitted curve in the direction sought with a large enough effect; inconclusive means small, poorly fitted or top-dose-only effect, or another doubt; inactive means no such curve, though single readings can be large; an effect the other way counts as inactive or inconclusive;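 further: plate controls were enzyme without inhibitor for no effect and buffer without enzyme for full effect; nearly all actives have a fitted effect of over 40% in size; top concentration of the series not given in the record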
#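 Purified cruzain at 1.5 nM, pre-incubated 15 min with compound at room temperature in 100 mM sodium acetate pH 5.5, 5 mM DTT, 0.00005% Triton X-100. Reaction started with 2 uM Z-FR-AMC; AMC fluorescence increase over 60 s gives rate.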
# Lassa entry inh = blocks Lassa virus binding to or entry into cells. Potency, µM (series often up to 37.9 µM), without a hit: top-dose activity change, negative = inhibition, most hits filed as inhibitors. 1.2% of 300,000 active. AID 540256. Lassa virus pseudotype entry inhibition, cell reporter; control for the full effect not named in the record; active means well fitted inhibition curve with a large enough effect; inconclusive means small, poorly fitted or top-dose-only effect, or effect the other way; inactive means flat fitted curve, though single readings scatter; tested in HEK293 cells; further: on the % scale 0 is the no-effect control and ±100 the full control effect; nearly all actives have a fitted effect of over 50% in size; luciferase read-out
# Marburg entry inh = inhibitors of Marburg virus binding or cell entry. 1.8% of 300,000 active. Potency, µM (top dose mostly 37.8 µM), for inactives: top-dose activity change, negative = inhibition, usual class: inhibitors. Marburg virus pseudotyped entry inhibition, cell reporter; control for the full effect not named in the record; about a third of the inactives were read at about 46 µM; active = well fitted inhibition curve with a large enough effect; inconclusive = small, poorly fitted or top-dose-only effect, or effect the other way; inactive = flat fitted curve, though single readings scatter; tested in HEK293 cells; about a fifth of its hits are not listed in these tables; further: on the % scale 0 is the no-effect control and ±100 the full control effect; luciferase read-out
# * hit, by the source's call; ? = inconclusive; · = no result given; & = joins results of further samples; [ ] = another dose, or the depositor's remark. Unless noted, the call rests on the fitted dose curve; in most records, active means well fitted rising curve with a large enough effect; inconclusive means small, poorly fitted or top-dose-only effect; inactive means no such curve, though single readings can be large or run the other way. Potency means the concentration at half of the fitted maximal effect.
molecule,NS1 inh,RE007 growth inh,SARS PLP yeast,Cruzain inh Det,StopGo reporter,Cruzain inh noDet,Lassa entry inh,Marburg entry inh
CCc1cc(CNC(=O)C2CCC(=O)N(Cc3cccc(F)c3)C2)on1 (stereo not given),12%,8%,3%,·,-4%,·,?,9%[46.1 µM]
COc1ccccc1CNC(=O)c1csc(Cc2ccc(Cl)cc2)n1,-38%,-6%,-7%,-5.0%,-7%,5%,-27%,?
O=C(OCC(=O)N1CCCC1)c1cc(Cl)ccc1[N+](=O)[O-],-1%,-11%,-1%,·,-20%,·,1%,0%[46.1 µM]
Cc1ccc(C(c2nnnn2CC2CCCO2)N2CCN(Cc3ccccc3)CC2)cc1 (stereo not given),2%,1%,-2%,·,20%,·,-23%,-16%[46.1 µM]
Cc1ccc(C)c(S(=O)(=O)N2CCN(Cc3cc4c(cc3O)OCO4)CC2)c1,·,-20%,4%,·,-11%,·,1%,?
CCC(C)NC(=O)c1ccc2c(c1)N(Cc1ccccc1)C(=O)c1ccccc1S2 (stereo not given),·,·,·,0.7%,0%,-7%,-1%[46.1 µM],·
O=C(/C=C/c1ccco1)Nc1ccccc1C(=O)Nc1cccc(C(=O)O)c1,-2%,-9%,-1%,·,3%,·,-23%,?
O=C(Nc1cccc(-c2csc(Nc3ccc(Cl)cc3)n2)c1)c1cc([N+](=O)[O-])cc(C(F)(F)F)c1,12%,10%,2%,·,?,·,·,·
C=C(C)COc1ccc(-c2ncncc2-c2ccc(Br)cc2)c(O)c1,-2%,-16%,-3%,·,-29%,·,?,?
Cc1c(C(=O)NCCSCc2c(F)cccc2Cl)cnn1-c1ccc(F)cc1,-37%,-7%,-4%,·,?,·,8%[46.1 µM],?
COc1cccc(CSc2nc3n(n2)C(CC(C)C)C(C(=O)Nc2ccccc2OC)=C(C)N3)c1 (stereo not given),·,·,·,0.9%,-26%,-3%,0%[46.1 µM],·
Cc1cc(Cl)ccc1OCC(=O)N1CCC(c2nc3ccccc3o2)CC1,·,·,·,-9.9%,?,?,11%[46.1 µM],13%[46.1 µM]
CCCC(=O)C1=C(O)C(C(=O)OC)C(C)(C)CC1=NC(C)(C)C (stereo not given),5%,0%,8%,7.1%,-25%,-2%,4%,-8%
CN=C(Nc1ccc(C(=O)OC)s1)c1ccc(Cl)cc1,-1%,5%,1%,·,-17%,·,3%,-1%[46.1 µM]
CCCN(CCC)C1Cc2cc(OC)c(OC)cc2C1,-1%,-3%[18.4 µM],·,4.6%&1.0%,-17%&-17%&-11%,6%&-3%,-12%,?
COc1ccc(CC(NC(C)=O)C(=O)NC2CCN(C(=O)Nc3ccc(C#N)cc3)CC2)cc1OC (stereo not given),-7%,13%,?,1.9%,-5%,-9%,?,0%
O=S(=O)(c1ccc(Cl)s1)N1CCCCC1,0%,6%,0%,·,0%,·,-1%,11%[46.1 µM]
CCCCC(CC)C(=O)Nc1ccccc1C#N (stereo not given),5%,-3%,-2%,1.6%,-8%,5%,?,-1%
Cc1cc(NC(=O)/C=C/C(=O)N(CC(=O)NC2CCCC2)c2cccc3ccccc23)no1,·,0%,2%,·,-13%,·,9%,-4%
Cc1ccc(C(=O)c2ccc(N3CCOCC3)c(F)c2)cc1,-10%,-28%,-1%,-1.9%,9%,-5%,9%,16%
CCOC(=O)CNC(=O)CCNS(=O)(=O)c1ccc2c(c1)c(=O)n(C)c(=O)n2C,-6%,4%,0%,3.8%,·,-16%,1%,15%
COc1ccc(OC)c(NC(=O)Nc2ccc(Cl)cc2)c1,-159%,-21%,-16%,-7.3%,·,-7%,7%,-12%
CC(=O)c1cccc(NC(=O)N2CCc3ccccc3C2)c1,-65%,-9%,1%,3.2%,44%[activator],-1%,-1%,?
Cc1ccccc1NC(=O)c1cc(S(=O)(=O)N2CCOCC2)cs1,-1%,10%,-4%,-0.8%,-23%,1%,11%,-4%
Cc1cc(/C=N/NC(=O)c2ccc(CN3CCOCC3)cc2)c(C)n1-c1ccccc1,5%,-1%,-1%,-5.5%,-17%,-8%,?,-1%

# Overlap with the part before: 2 compounds, then new ones.
molecule,NS1 inh,RE007 growth inh,SARS PLP yeast,Cruzain inh Det,StopGo reporter,Cruzain inh noDet,Lassa entry inh,Marburg entry inh
Cc1ccccc1NC(=O)c1cc(S(=O)(=O)N2CCOCC2)cs1,-1%,10%,-4%,-0.8%,-23%,1%,11%,-4%
Cc1cc(/C=N/NC(=O)c2ccc(CN3CCOCC3)cc2)c(C)n1-c1ccccc1,5%,-1%,-1%,-5.5%,-17%,-8%,?,-1%
O=S(=O)(c1ccc(Cl)cc1)N1CCN(C(=S)Nc2ccc(F)c(Cl)c2)CC1,5%,-16%,-3%,-6.1%,-3%,?,?,?
Cc1ccc(C)c(Cn2c(=O)n(Cc3ccc4c(c3)OCO4)c(=O)c3oc4ccccc4c32)c1,·,·,·,1.1%,0%,-6%,15%[46.1 µM],·
Cc1ccc(CN(C(=O)N2CCN(C)CC2)S(=O)(=O)c2ccc(C)cc2)cc1,·,-14%,0%,·,-10%,·,-24%,16%
Cc1ccc(CSc2nnc(CNc3ccc(F)cc3)o2)cc1,·,32%,-6%,·,?,·,1%,-1%[46.1 µM]
N#CC(c1ccccc1)N1CCOCC1 (stereo not given),1%,4%,1%,·,-13%,·,·,·
COc1ccc(CNC(=O)c2cnc3n(c2=O)CCS3)cc1,-11%,2%,-22%,-2.6%,-24%,3%,-21%,-1%
N#Cc1ccc(/C=C2\CCn3c2nc2cc(C(=O)O)ccc2c3=O)cc1,9%,-23%,2%,·,2%,·,-2%,4%
N#CCC(=O)N/N=C\c1ccc(OC/C=C/c2ccccc2)cc1,-2%,16%,-5%,·,9%,·,?,13%[46.1 µM]
CC1CCCCN1S(=O)(=O)c1ccc(C(=O)Nc2nnc(C3=COCCO3)o2)cc1 (stereo not given),7%,15%,0%,·,-25%,·,-9%,0%
Cc1cc(-c2ccccc2)[nH]c(=O)c1S(=O)(=O)c1ccc(Cl)cc1,19%,-14%,15%,5.9%,-2%,?,-1%,1%
Cc1ccc2sc(-c3ccc(NC(=O)CCN4C(=O)c5ccccc5C4=O)cc3)nc2c1,4%,·,-2%,1.2%,·,13%,·,1%
Cc1ccc(C2=NN(C)c3nc4ccccc4n3C2)cc1,-47%,-15%,3%,-1.5%,?,9%,1%,-3%[46.1 µM]
NC1=Nc2cccc3cccc1c23,-5%,0%,1%,·,-16%,·,1%,?
CC1(C)c2ccccc2N(CC(N)=O)C12C=Cc1ccccc1O2 (stereo not given),-8%,11%,0%,·,-23%,·,1%[46.1 µM],?
CCCCNc1cc(=O)n(C)c(=O)n1C,-1%,6%,5%,3.1%,5%,0%,-10%,0%
COc1ccc(C(=O)/C=C/Nc2cccc(C)n2)cc1OC,-2%,-13%,-1%,-12%,27%,?,?,?
C[C@@H](C(=O)N1CCN(C(=O)OC(C)(C)C)CC1)n1cc(CCC(=O)O)nn1,4%,14%,1%,·,3%,·,·,·
CCOC(=O)c1ccccc1NC(=O)Cn1c(=O)n(Cc2ccc(C(=O)NCc3ccc4c(c3)OCO4)cc2)c(=O)c2ccccc21,·,·,·,-2.5%,-18%,?,-7%[46.1 µM],-24%[46.1 µM]
CC(Nc1c([N+](=O)[O-])c(=O)oc2ccccc12)c1ccccc1 (stereo not given),-7%,11%,-6%,·,-7%,·,·,-3%
CCN1/C(=C/C(C)=O)Sc2ccc(OC)cc21,-56%&-40%,28%,-13%,-14%&-6.4%,3%,-3%&-10%,-12%&5%,0%&7%&0%&7%&7%&7%
COCCNC(=O)c1ccccc1NC(=O)Cc1ccccc1,5%,6%,-1%,·,-7%,·,-1%[46.1 µM],-19%[46.1 µM]
Cc1ccc(C)c(OCCOCCN2CCOCC2)c1,-1%,1%,1%,4.6%,13%,0%,3%,3%
CN1CCN(c2nnc(-c3ccccc3)c(-c3ccccc3)n2)CC1,-1%,19%,1%,·,-10%,·,0%,?
CN=c1scc(-c2c[nH]c3ccccc23)n1C,·,-23%,1%,·,-3%,·,23%[46.1 µM],?
COc1ccc(-n2cc(C(=O)Nc3ccccc3C#N)c3ccccc3c2=O)cc1,·,·,·,-4.4%,-17%,?,?,·
COc1cccc(C(=O)Nc2ccc3nc(SCC(=O)N4CCOCC4)sc3c2)c1,·,·,·,-7.8%,0%,?,4%[46.1 µM],?
CC(C)(O)C#Cc1ccc(C(=O)N2CCC(CCC(=O)NC3CC3)CC2)cc1,-2%,7%,0%,·,-18%,·,1%,-4%
COc1ccc(S(=O)(=O)N(C)CC(=O)N2CCCC2)cc1,3%,-6%,·,·,-15%,·,4%,3%
O=C(CS(=O)(=O)c1ccccc1)NCc1ccc(Cl)cc1,4%,-4%,-2%,·,11%,·,·,·
CN(CCOC(=O)c1ccco1)Cc1ccccc1,-5%,7%,7%,4.3%,1%,6%,-1%,6%
CN1CCN(C(=O)c2cnn3c(C(F)F)cc(C4CC4)nc23)CC1,5%,2%,0%,2.2%,-20%,-5%,?,7%
O=S(=O)(NC(=NC1CCCCC1)c1ccccc1F)c1ccccc1,-2%,4%,1%,·,37%[activator],·,16%[46.1 µM],-24%[46.1 µM]
C=CCn1c(SCC(=O)NCc2ccccc2)nnc1C1CCCCC1,-1%,0%,1%,1.4%,-2%,-6%,-16%,0%

# An unsorted share of the library. About 4.7% of those tested had a hit in this group.
